High-throughput results as filed in PubChem BioAssay.
miR-21 reporter – miR-21 reporter, rising signal; HeLa miR-21 FLuc reporter, luciferase, 48 h; Potency, µM (doses to about 38.3 µM), without a hit: at the top dose reporter change, positive = more light; 340,000 tested, under 10 active; active = well fitted rising curve with a large enough effect; inconclusive = small, poorly fitted or top-dose-only effect; inactive = no such curve, though single readings can be large or run the other way;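 note: % of control where 0% means no effect; miR-21 action dims this reporter so a rising signal means less miR-21 action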
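HeLa miR-21-FLuc reporter line, endogenous miR-21; 2000 cells/well in DMEM/10% FBS; compound titration up to ~40uM final, 48 h, 37 degree Celsius; luciferase detection reagent, 15 min lysis, CCD luminescence.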
GLA inh pH 4.5 – blocks human alpha-galactosidase A at pH 4.5. 230,000 tested, under 10 active. activity change, negative = inhibition, % at 105 µM. purified enzyme, 4-MU-alpha-Gal fluorescence, pH 4.5; inconclusive = small, poorly fitted or top-dose-only inhibition, or a rising curve; inactive = flat fitted curve, though single readings scatter; no compound was filed as active;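 note: 0% = full activity with enzyme and -100% = basal without enzyme; dose as in the result columns while the protocol names 77 µM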
Rango dissoc inh – inhibition of RanGTP-driven Rango-importin beta dissociation. O95149+P62826. Biochemical FRET Rango-importin beta, RanGTP-induced dissociation. Potency, µM (doses to about 46.1 µM), for inactives: at the top dose activity change, negative = inhibition. 340,000 tested, 0.071% active. AID 540253; active means falling FRET ratio curve, often poorly fitted, with flat reads before Ran was added; inconclusive means other falling curves, or compound fluorescence or quenching; inactive means flat or rising ratio curve;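 note: potency is the fitted concentration of half-maximal effect; % of control where 0% means no effect; nearly all actives have a fitted effect of over 45% in size; -100% = wells without RanGTP and RCC1; the record marks most hits as doubtful in a second field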
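Rango FRET biosensor (snurportin-1 IBB flanked by N-terminal EYFP and C-terminal CFP10) at 0.1 uM, with 0.25 uM importin beta in PBS, 1mM DTT, 0.02% Tween-20, 0.1% BSA. 0.6 uM Ran, 2mM GTP and 0.2 uM RCC1 were then added for 45 min at room temperature. Inhibition read as loss of FRET rise.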
Rango-impB inh – inhibitors of Rango-importin beta complex formation. Q14974. Rango CFP/YFP FRET sensor + importin beta, 45 min. Potency, µM (highest dose often 92.2 µM), inactives show at the top dose inhibition of complex formation. 340,000 tested, 0.031% active; active = rising FRET ratio curve, often small or poorly fitted; inconclusive = mostly compound fluorescence or quenching in the first reads; inactive = flat curves in all reads;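 note: potency is the fitted concentration of half-maximal effect; 0% = DMSO wells and 100% = buffer wells lacking importin beta; nearly all actives have a fitted effect of over 15% in size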
Target sequence (Q14974 whole entry, looked up): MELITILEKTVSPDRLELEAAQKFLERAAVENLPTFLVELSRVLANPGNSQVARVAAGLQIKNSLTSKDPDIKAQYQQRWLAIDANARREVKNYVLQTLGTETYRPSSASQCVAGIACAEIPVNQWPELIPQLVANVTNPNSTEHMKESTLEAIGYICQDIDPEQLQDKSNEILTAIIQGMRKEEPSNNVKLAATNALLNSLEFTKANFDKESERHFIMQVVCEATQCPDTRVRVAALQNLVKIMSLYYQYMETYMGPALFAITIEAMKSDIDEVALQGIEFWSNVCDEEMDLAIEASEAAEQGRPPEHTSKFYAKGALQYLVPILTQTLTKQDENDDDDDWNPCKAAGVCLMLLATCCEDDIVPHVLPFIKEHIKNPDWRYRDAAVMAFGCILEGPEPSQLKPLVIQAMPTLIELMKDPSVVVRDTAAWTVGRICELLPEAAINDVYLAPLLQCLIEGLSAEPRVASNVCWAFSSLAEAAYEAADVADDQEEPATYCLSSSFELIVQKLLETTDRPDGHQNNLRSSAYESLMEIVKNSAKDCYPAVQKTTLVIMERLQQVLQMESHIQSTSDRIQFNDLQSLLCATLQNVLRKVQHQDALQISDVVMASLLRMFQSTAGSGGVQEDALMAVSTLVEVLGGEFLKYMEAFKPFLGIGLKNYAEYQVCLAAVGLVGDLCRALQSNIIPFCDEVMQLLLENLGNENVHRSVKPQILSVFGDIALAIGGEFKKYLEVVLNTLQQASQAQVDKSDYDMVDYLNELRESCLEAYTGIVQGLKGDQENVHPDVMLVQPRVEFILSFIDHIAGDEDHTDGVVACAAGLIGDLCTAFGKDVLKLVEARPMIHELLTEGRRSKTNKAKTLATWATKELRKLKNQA
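Inhibition scored from the CFP 486 nm/YFP 530 nm FRET ratio 45 min after adding 0.125 microM importin beta to 50 nM Rango biosensor preincubated 5 min with compound (room temperature, PBS with DTT, Tween-20, BSA). No-importin wells as positive control.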
* marks the source's active call; other numbers are inactive results; ? = inconclusive; . = not tested or not shown.

SMILES	miR-21 reporter	GLA inh pH 4.5	Rango dissoc inh	Rango-impB inh
Cc1ccc(C(c2nnnn2CC2CCCO2)N2CCN(C)CC2)cc1 (stereo unspecified)	-2%	0	-8%	-2.2%
CCOC(=O)c1c(NC(=O)c2cccc([N+](=O)[O-])c2C(=O)O)sc2c1CCCC2	-1%	.	-26%	0.6%
O=C(COC(=O)c1c[nH]c2ccccc12)Nc1ccc([N+](=O)[O-])cc1	.	.	-9%	2.8%
O=C(COC(=O)c1ccc(F)cc1)NCCc1ccc(F)cc1	6%	1	1%	-1.6%
Cc1ccc(-c2nnc(SCC(=O)N3CCCc4ccccc43)n2N)cc1	-3%	-5	1%	-0.5%
Cc1nc(N)sc1-c1csc(Nc2cccc(O)c2)n1	-29%	.	-7%	?
Cc1ccc(S(=O)(=O)N(C)C)cc1NC(=O)CN1C(=O)NC(Cc2c[nH]c3ccccc23)C1=O (stereo unspecified)	3%	-3	-2%	-4.3%
COc1ccc(Cl)cc1N(C(=O)c1ccco1)C(C(=O)NC1CCCC1)c1ccncc1 (stereo unspecified)	-2%	.	-21%	-0.4%
Cc1cccc(C(=O)C2CCN(S(=O)(=O)c3ccc(C(=O)O)cc3)CC2)c1	4%	.	0%	-2.0%
COc1ccc(NC(=O)C2C3C=CC4(O3)C2C(=O)N(CCN2CCCCC2)C4C(=O)NC2CCCCC2)cc1 (stereo unspecified)	-2%	.	1%	-4.2%
CC1CC(C)CN(C(=O)C2CCCN(c3ncnc4c3nc3n4CCCCC3)C2)C1 (stereo unspecified)	7%	.	2%	4.2%
CCOC(=O)CCCCCC(=O)Nc1ccc2c(c1)CC(=O)N([C@@H](C)CO)C[C@H](C)[C@@H](CN(C)C(=O)Nc1ccc3c(c1)OCO3)O2	.	.	-3%	-1.5%
CC1CCCC(C)N1C(=O)Nc1cccc(Cl)c1 (stereo unspecified)	-5%	-6	3%	1.5%
COc1cc(OC)cc(C(=O)OCC(=O)NCc2ccco2)c1	.	.	2%	1.6%
CCc1ccccc1NC(=O)C1CCN(C(=O)c2ccc([N+](=O)[O-])cc2)CC1	-1%	6	?	-3.4%

An excerpt of these results, with two lines to a compound.
Each structure is followed by: miR-21 reporter, GLA inh pH 4.5, Rango dissoc inh, Rango-impB inh
> CC1CC(C)CN(C(=O)C2CCCN(c3ncnc4c3nc3n4CCCCC3)C2)C1 (stereo unspecified)
  7%, ., 2%, 4.2%
> CCOC(=O)CCCCCC(=O)Nc1ccc2c(c1)CC(=O)N([C@@H](C)CO)C[C@H](C)[C@@H](CN(C)C(=O)Nc1ccc3c(c1)OCO3)O2
  ., ., -3%, -1.5%
> CC1CCCC(C)N1C(=O)Nc1cccc(Cl)c1 (stereo unspecified)
  -5%, -6, 3%, 1.5%

Following part:
SMILES	miR-21 reporter	GLA inh pH 4.5	Rango dissoc inh	Rango-impB inh
Cc1ccc2c(c1)N(Cc1ccc3c(c1)OCO3)C(=O)C(C)O2 (stereo unspecified)	-15%	-4	-10%	-1.9%
Cc1[nH]c2ccccc2c1C(=O)CSc1ccc(F)cc1	-38%	-1	-8%	-0.6%
CC(C)Cc1cc(CN2CCCC(CO)(Cc3cccc(Cl)c3)C2)[nH]n1 (stereo unspecified)	5%	-26	0%	0.9%
COC(=O)c1ccccc1NC(=O)COC(=O)/C=C/c1ccco1	0%	0	1%	1.1%
CC1CCN(C(=O)c2ccccc2NC(=O)Nc2ccccc2)CC1	-5%	.	-4%	-1.5%
CC(NC(=O)c1ccc(N(C)C)c([N+](=O)[O-])c1)c1ccc(-n2ccnc2)cc1 (stereo unspecified)	-1%	.	-16%	1.5%
COc1ccc(C2C=C(c3ccc(Br)s3)Nc3ncnn32)cc1OC (stereo unspecified)	-1%	-4	.	.
COc1ccc(NS(=O)(=O)c2cccc(C(=O)NN=Cc3ccc(OC)c(O)c3)c2)cc1	.	.	8%	-0.7%
c1ccc2c(C3CCO3)cccc2c1 (stereo unspecified)	.	.	2%	-1.3%
CCOC(=O)c1sc(NC(=O)c2sccc2C)cc1C	-64%	-10	-12%	-4.3%
CC(C)=CCN1CCN(Cc2cccn2-c2nccs2)CC1CCO (stereo unspecified)	0%	-12	-7%	-1.2%
COCC(C)NC(=S)NC(=O)c1cc(S(=O)(=O)N2CCOCC2)ccc1C (stereo unspecified)	1%	9	3%	1.1%
O=C(NCCN1CCOCC1)c1c(Cl)cccc1Cl	-1%	.	4%	0.5%
Cc1nn2c3ccccc3n(C)c2nc1=O	0%	-4	-3%	-0.3%
Cn1c(SCC(=O)N2c3ccccc3Sc3ccc(Cl)cc32)nnc1-c1ccco1	-1%	4	?	?
COC(=O)c1cc(=O)nc2sccn12	-5%	-9	-9%	1.4%
Cc1cccc(C)c1NC(=S)N(Cc1ccccc1)Cc1cccnc1	-4%	-11	-8%	0.6%
CCN(CC)S(=O)(=O)c1ccc(C)c(C)c1	-2%	9	2%	-1.0%
Cc1cc2ncn(-c3ncccc3[N+](=O)[O-])c2cc1C	-7%	.	6%	-2.3%
COc1cccc(C2=NOC(C(=O)NCc3ccco3)C2)c1 (stereo unspecified)	0%	6	-5%	-0.1%
O=C(c1ccccc1)c1cc([N+](=O)[O-])ccc1N1CCCC1	-6%	-3	-10%	3.5%
CCOC(=O)c1[nH]c2ccc(OC)cc2c1NC(=O)N1CCOCC1	-21%	-4	-8%	-0.3%
COc1ccccc1Nc1nc(NCC(C)C)nc(N)c1[N+](=O)[O-]	-7%	-7	-5%	-1.9%
O=C(Nc1ccc2c(c1)OCCO2)c1cncc(Br)c1	-14%	6	5%	0.5%
Cc1nn(C)c(C)c1NC(=O)c1ccc(Br)o1	4%	4	13%	6.0%
Cc1nnc(SCCN2C(=O)c3ccccc3C2=O)nc1C	.	.	21%	-0.3%
CCCCCC(/C=N/Nc1ccc(S(=O)(=O)N2CCOCC2)cc1[N+](=O)[O-])=C\c1ccccc1	-4%	0	-14%	0.4%
CCc1cccc(CC)c1NC(=S)Nc1ccccc1	0%	6	5%	-1.3%
COc1cccc(C(=O)NC2CCCN(C3Cc4ccccc4C3)C2)c1OC (stereo unspecified)	-4%	.	-7%	-2.2%
COc1ccc([N+](=O)[O-])cc1N(CC(=O)Nc1ccccc1C(=O)N1CCCC1)S(C)(=O)=O	-1%	4	0%	1.8%
O=C(C1CCN(S(=O)(=O)N2CCC3(CC2)OCCO3)CC1)N1CCc2ccccc2C1	0%	-12	10%	0.9%
CCCS(=O)(=O)Nc1cccc(-c2cn3c(n2)SCC3)c1	-9%	.	-6%	-3.4%
Cc1ccc(S(=O)(=O)N2CCN(C(=O)CCC(=O)NCc3ccc(F)cc3)CC2)cc1	-6%	-3	-3%	-2.8%
Cc1cc(C)n(Cc2n[nH]c(=S)n2Cc2ccccc2)n1	-5%	-1	-4%	0.0%
O=[N+]([O-])c1cc(S(=O)(=O)N2CCCC2)ccc1N/N=C/c1ccccn1	-3%	3	0%	0.2%
CCCC12CN3CC(C)(CN(C1)C31C(=O)Nc3ccc(C)cc31)C2=O (stereo unspecified)	-2%	-11	0%	-2.1%
CCOC(=O)N1CCN(CC(O)COc2ccccc2C(C)C)CC1 (stereo unspecified)	1%	-7	-11%	1.2%
COc1ccccc1C(=O)NCC(=O)Nc1ccccc1	-5%	-13	-7%	?
CCC(=O)N(Cc1cc2ccc(C)cc2[nH]c1=O)c1ccccc1OC	6%	.	-17%	-1.1%
CCOc1ccccc1CNC(=O)CCCC(=O)n1nc(C)c2ccccc21	-2%	.	2%	-0.5%
CCN(CC)c1ccc(C(=O)OCC(=O)Nc2ccc3[nH]c(=O)[nH]c3c2)cc1	-13%	2	-4%	0.1%
COc1cccc(C(=O)CC(=O)C(=O)Nc2cc(OC)ccc2OC)c1	-2%	.	-6%	-0.1%
CN(c1ccc(C(=O)Nc2ccccc2C(=O)N2CCCC2)cc1)S(C)(=O)=O	1%	7	-13%	-1.4%
c1ccc(-n2nnnc2SCCCSc2nc3ccccc3s2)cc1	0%	1	-4%	3.2%
Cc1cccc(OC(C)C(=O)Nc2nc(-c3ccncc3)cs2)c1 (stereo unspecified)	.	.	1%	2.4%
O=C1C(=O)N(Cc2ccccc2)C(=O)N1CCN1C(=O)c2ccccc2C1=O	-1%	2	19%	-1.2%
O=C(NC(=O)c1ccccc1)Nc1cccc(S(=O)(=O)N2CCCCC2)c1	-4%	.	12%	1.0%
CCCSc1nc2c(cnn2-c2ccc(C)c(C)c2)c(=O)[nH]1	-5%	3	7%	-3.4%
COc1ccc(/C=N/NC(=S)Nc2ccccc2)cc1	-57%	4	3%	0.2%
CCN(CC)c1ccc(N=Cc2c(C)[nH]c3ccccc23)cc1	14%	-8	-8%	?
O=C(NCc1ccccc1)C1CCC(=O)N(CC2CCCCC2)C1 (stereo unspecified)	2%	.	0%	1.7%
CC1(C)Cc2c(C#N)c(SCCOc3ccccc3)nc(N3CCOCC3)c2CO1	-4%	-17	0%	-7.2%
COc1ccc(S(=O)(=O)N2CCOCC2)cc1NC(=O)Cc1c(Cl)cccc1Cl	-1%	4	-16%	0.2%
CC(=O)c1cnc2nc(SCc3cccc(C)c3)nn2c1C	-36%	.	-16%	3.9%
COc1cc(CC(NC(C)=O)C(=O)NC2CCN(C(=O)Nc3ccccc3C)CC2)cc(OC)c1 (stereo unspecified)	0%	.	0%	-1.4%
CCOC(=S)SCC(=O)Nc1nc(C)c(C)s1	1%	9	-8%	-0.2%
COc1ccc(OC)c(NC(=O)CCCC(=O)NC2CCCCC2)c1	-2%	.	0%	0.6%
Cc1cccc(C)c1NC(=O)COc1cccc(/C=N/NC(=O)C(=O)NCc2ccccc2)c1	-4%	4	?	-2.4%
Cc1nn(Cc2c(F)c(F)c(F)c(F)c2F)c(C)c1NC(=O)c1c(-c2ccccc2)nn(-c2ccccc2)c1C	-2%	3	10%	2.5%
Cc1ccc(O)c(NC(=O)c2ccc3c(c2)C(=O)N(Cc2ccco2)C3=O)c1	-16%	.	2%	?

Of the compounds above, 3 contain a thiophene ring, fused or not.
SMILES	miR-21 reporter	GLA inh pH 4.5	Rango dissoc inh	Rango-impB inh
CCOC(=O)c1c(NC(=O)c2cccc([N+](=O)[O-])c2C(=O)O)sc2c1CCCC2	-1%	.	-26%	0.6%
COc1ccc(C2C=C(c3ccc(Br)s3)Nc3ncnn32)cc1OC (stereo unspecified)	-1%	-4	.	.
CCOC(=O)c1sc(NC(=O)c2sccc2C)cc1C	-64%	-10	-12%	-4.3%

Following part.
SMILES	miR-21 reporter	GLA inh pH 4.5	Rango dissoc inh	Rango-impB inh
COc1ccccc1N1CCN(C(=O)c2ccc3c(=O)n(Cc4ccc5c(c4)OCO5)c(=O)[nH]c3c2)CC1	2%	.	-6%	0.7%
O=C(O)c1ccc(S(=O)(=O)Nc2ccc(F)c(Cl)c2)cc1	-13%	-3	16%	0.5%
Cc1ccc(C)c(NC(=O)c2cc([N+](=O)[O-])cc([N+](=O)[O-])c2)c1	1%	.	-8%	-2.0%
CN(C)CCCN(C(=O)c1ccc(S(=O)(=O)N2CCOCC2)cc1)c1nc2cc3c(cc2s1)OCO3	-10%	.	20%	2.8%
CCOCCCNC(=O)CN1C(=O)c2ccccc2Sc2ncccc21	0%	.	-10%	0.6%
CCOC(=O)c1sc2ncc([N+](=O)[O-])cc2c1N	-10%	-4	-6%	0.7%
CC1(C)[C@H]2CC=C(CN3CCC(N4CCC(C(=O)N5CCCC5)CC4)CC3)[C@@H]1C2	13%	0	3%	4.7%
Fc1cc(F)cc(NC(=S)Nc2ccccc2N2CCOCC2)c1	5%	6	-17%	3.2%

Full records, looked up by structure.
`O=C(O)c1ccc(S(=O)(=O)Nc2ccc(F)c(Cl)c2)cc1` is listed as miR-21 reporter: -13%; GLA inh pH 4.5: -3; Rango dissoc inh: 16%; Rango-impB inh: 0.5%
`CCOCCCNC(=O)CN1C(=O)c2ccccc2Sc2ncccc21` is listed as miR-21 reporter: 0%; GLA inh pH 4.5: .; Rango dissoc inh: -10%; Rango-impB inh: 0.6%

Quoted at random: 2 entries already listed, in no set order.
SMILES	miR-21 reporter	GLA inh pH 4.5	Rango dissoc inh	Rango-impB inh
O=C(O)c1ccc(S(=O)(=O)Nc2ccc(F)c(Cl)c2)cc1	-13%	-3	16%	0.5%
Cc1ccc(C)c(NC(=O)c2cc([N+](=O)[O-])cc([N+](=O)[O-])c2)c1	1%	.	-8%	-2.0%

A portion of the library; the hit share may differ from the screen's.
